Screens deposited in PubChem BioAssay by Sanford-Burnham Center for Chemical Genomics.
MT1-MMP reporter: inhibitors of MT1-MMP promoter transcription, cell-based, luciferase reporter, luminescence (AID 618). 87,000 tested, 0.62% active. calls from a first round at 10 µM; hits with a dose series show EC50 in µM. MT1-MMP promoter luciferase reporter cells, luminescence;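 active = over half of the reporter light lost at 10 µM or EC50 under 50 µM; inactive = the rest and hits that failed the dose series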;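 also: actives suppress MT1-MMP promoter-driven transcription so potencies describe inhibitors; HT1080 fibrosarcoma cells; overnight exposure; toxic or luciferase-blocking compounds were not removed from the actives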
Calls only; i = inactive. An excerpt; the hit share may differ from the screen's.

SMILES	MT1-MMP reporter
COc1ccc(C2C(C(=O)OCC3CCCO3)=C(C)NC3=C2C(=O)CC(c2ccco2)C3)cc1O (stereo unspecified)	i
COC(=O)CNC(=O)C1(C)C=CC2(CCCCC2)N1C(C)=O (stereo unspecified)	i
CCc1ccc2[nH]c(=O)c(C3C(C#N)=C(N)Oc4c3ccc3cccnc43)cc2c1 (stereo unspecified)	i
O=C(Nc1ccccc1N1CCN(C(=O)c2ccccc2)CC1)c1cc(Br)ccc1Cl	i
CCCCCCN(C(=O)CCCCCN1C(=O)NC(C2CCCCC2)C(C(=O)OCc2ccccc2)=C1C)C(C(=O)NCCCC)c1ccc(OCC(=O)OC)c(C(=O)OC)c1 (stereo unspecified)	i
COC(=O)[C@@]1(Cc2ccc(F)cc2)[C@H]2c3cc(C(=O)N4CCCC4)n(CCc4c[nH]c5ccc(OC)cc45)c3C[C@H]2CN1C(=O)c1ccccc1	i
COC(=O)[C@@]1(Cc2ccc(OC)cc2)[C@H]2c3cc(C(=O)N4CCCC4)n(Cc4cc(C)n(C)n4)c3C[C@H]2CN1C(=O)c1ccccc1	i
COc1cc2c(cc1NC(=O)c1ccncc1)oc1ccccc12	i
O=C1CSC(c2c(F)cccc2Cl)N1c1cccc(F)c1 (stereo unspecified)	i
COc1cc2[nH]c(=S)nc(NCCCOC(C)C)c2cc1OC	i
Cc1ccc(NC(=O)Cn2nnc(C(=O)NCc3ccco3)c2N)cc1	i
CCCC(=O)C1C(=O)CC(CC(C)SCC)CC1=O (stereo unspecified)	i
CCOc1ccc(-n2cc(C(=O)Nc3ccc(Cl)cn3)c3cc(OC)c(OC)cc3c2=O)cc1	i
CCCCN(CC)CCNC(=O)c1[nH]c(C)c(C(C)=O)c1C	i
CCCCNC(=O)C1CC(=O)N(c2ccc(OC)cc2)C1c1ccc(OC)cc1 (stereo unspecified)	i
O=C1CC(C(F)(F)C(F)(F)C(F)(F)C(F)(F)F)=Nc2ccccc2N1	i
CC1=CCC(C(=O)O)(C(=O)N/N=C/c2cccs2)C(c2ccc(F)cc2)C1 (stereo unspecified)	i
CCC(C)c1ccc(OCC(=O)Nc2ccc(Cl)cn2)cc1 (stereo unspecified)	i
COc1ccccc1N1CCN(C(=O)Cn2c(=O)[nH]c3ccsc3c2=O)CC1	i
O=C(O)CCC(=O)Nc1ccc(Br)c(Cl)c1	i
CCNC(=O)CC1C(=O)N(c2ccc(C)cc2)C(=O)N1CCc1ccc(OC)c(OC)c1 (stereo unspecified)	i
O=C(Cc1c(O)c2ccccc2[nH]c1=O)NCc1ccccc1	i
COC(=O)c1cc2ccsc2n1CC(=O)N(C)C1CCCCC1	i
COC(=O)c1ccc(NC(=O)Cc2ccc(C)cc2)cc1	i
Cc1cc(C)n(-c2nc3ccccc3nc2N2CCN(S(=O)(=O)c3ccc4ccccc4c3)CC2)n1	i

Part of the list above, bar-delimited.
Structure | MT1-MMP reporter
COC(=O)[C@@]1(Cc2ccc(F)cc2)[C@H]2c3cc(C(=O)N4CCCC4)n(CCc4c[nH]c5ccc(OC)cc45)c3C[C@H]2CN1C(=O)c1ccccc1 | i
COC(=O)[C@@]1(Cc2ccc(OC)cc2)[C@H]2c3cc(C(=O)N4CCCC4)n(Cc4cc(C)n(C)n4)c3C[C@H]2CN1C(=O)c1ccccc1 | i
COc1cc2c(cc1NC(=O)c1ccncc1)oc1ccccc12 | i
O=C1CSC(c2c(F)cccc2Cl)N1c1cccc(F)c1 (stereo unspecified) | i
COc1cc2[nH]c(=S)nc(NCCCOC(C)C)c2cc1OC | i
Cc1ccc(NC(=O)Cn2nnc(C(=O)NCc3ccco3)c2N)cc1 | i
CCCC(=O)C1C(=O)CC(CC(C)SCC)CC1=O (stereo unspecified) | i
CCOc1ccc(-n2cc(C(=O)Nc3ccc(Cl)cn3)c3cc(OC)c(OC)cc3c2=O)cc1 | i
CCCCN(CC)CCNC(=O)c1[nH]c(C)c(C(C)=O)c1C | i
CCCCNC(=O)C1CC(=O)N(c2ccc(OC)cc2)C1c1ccc(OC)cc1 (stereo unspecified) | i
O=C1CC(C(F)(F)C(F)(F)C(F)(F)C(F)(F)F)=Nc2ccccc2N1 | i
CC1=CCC(C(=O)O)(C(=O)N/N=C/c2cccs2)C(c2ccc(F)cc2)C1 (stereo unspecified) | i
CCC(C)c1ccc(OCC(=O)Nc2ccc(Cl)cn2)cc1 (stereo unspecified) | i
COc1ccccc1N1CCN(C(=O)Cn2c(=O)[nH]c3ccsc3c2=O)CC1 | i
O=C(O)CCC(=O)Nc1ccc(Br)c(Cl)c1 | i
CCNC(=O)CC1C(=O)N(c2ccc(C)cc2)C(=O)N1CCc1ccc(OC)c(OC)c1 (stereo unspecified) | i
O=C(Cc1c(O)c2ccccc2[nH]c1=O)NCc1ccccc1 | i

(continued)
SMILES	MT1-MMP reporter
COC(=O)C1=C(N)c2ccccc2C1(C#N)c1ccccc1 (stereo unspecified)	i
NC(=O)c1ncc(C(F)(F)F)cc1Oc1cccc(C(F)(F)F)c1	i
COC(=O)[C@@]1(Cc2ccc(OC)cc2)[C@@H]2C(=CC(=O)[C@H]2CC(=O)C(=O)N2CCCC2)CN1C(=O)c1ccccc1	i
CCCCn1c(SCC(=O)Nc2ccccc2C(F)(F)F)nc2ccsc2c1=O	i
COC(=O)[C@@]1(Cc2ccc(F)cc2)[C@H]2c3cc(C(=O)N(C)C)n(Cc4ccc(C)o4)c3C[C@H]2CN1C(=O)c1ccccc1	i
COC(=O)c1ccc(C(/C=C/[C@@H](C)C(=O)N(C)Cc2ccccc2)NC(=O)OCc2ccccc2)cc1 (stereo partly specified)	i
Cn1c(N)c(C(=O)COC(=O)c2cc(-c3ccco3)nc3ccccc23)c(=O)n(C)c1=O	i
O=C(CSc1nc2ccccc2c(=O)n1NC(=O)Cc1ccccc1)NCCc1ccccc1	i
Cc1ccc2oc(=O)c3c4cc(O)c(O)cc4oc3c2c1	i
CCc1cccc(CC)c1NC(=O)c1cccc(NC(=O)c2ccccc2)c1	i
CCOC(=O)N1CCC(Nc2c(-c3ccccc3)c(=O)c2=O)CC1	i
COC(=O)[C@@H]1C[C@@]2(O)[C@H](O)[C@H](O)[C@H](O)C[C@H]2N1CC1CC1	i
O=C(Nc1ccccc1C(=O)O)c1cncc(Br)c1	i
CCOC(=O)N1CCN(C(=O)CN(c2ccc(OC)c(OC)c2)S(C)(=O)=O)CC1	i
CCOC(=O)c1c(NC(=O)CSc2nnc(C)s2)sc2c1CCCCC2	i
Cc1ccc(CCNC(=O)C2CCCN(C(=O)N(C)C)C2)cc1 (stereo unspecified)	i
COc1ccc(CCC(N)=O)cc1OC	i
CCOC(=O)C1=C(COc2ccccc2)NC(=O)NC1c1ccc(C#N)cc1 (stereo unspecified)	i
COC(=O)c1ccc(C(NC(=O)OCc2ccccc2)/C(I)=C/[C@@H](C)C(=O)NCCc2c[nH]c3ccccc23)cc1 (stereo partly specified)	i
COCCN1C(=O)c2ccccc2C(C(=O)Nc2ccc3c(c2)OCCO3)C1c1ccc(F)cc1 (stereo unspecified)	i
COC(=O)c1c2c(nc3ccccc13)CCC2	i
CN(C(=O)N1CCN(c2ccccn2)CC1)c1ccccc1	i
CCOC(=O)c1c(Nc2ccc(Cl)cc2)sc(/C=C2\C=Nc3ccccc32)c1O	i
COC(=O)c1ccc(NC(=O)CSc2nnc(C(C)NC(=O)c3ccccc3Cl)n2C)cc1 (stereo unspecified)	i
CCOC(=O)c1nnc(-c2ccccc2)nc1Sc1ccccc1Cl	i
SMILES	MT1-MMP reporter
CCCCNS(=O)(=O)c1ccc(OC)c(Cl)c1Cl	i
O=C(c1cccc(S(=O)(=O)N2CCOCC2)c1)N1CCN(c2ccc(F)cc2)CC1	i
Cc1ccccc1NC(=O)C1c2cccc[n+]2CC(=O)N1c1c(C)cccc1C (stereo unspecified)	i
COc1c(F)c(F)c(C(=O)O)c(Nc2ccccc2)c1F	i
CC(Cc1ccccc1)C(=O)NCC1CC1 (stereo unspecified)	i
OCCN1CCN(CC(O)COc2ccc(Cl)cc2)CC1 (stereo unspecified)	i
COC(=O)c1ccc(C(NC(=O)OCc2ccccc2)/C(=C/[C@@H](C)C(=O)Nc2ccc(OC)cc2)c2cccnc2)cc1 (stereo partly specified)	i
COC(=O)c1cccc(C23CC4(C2)[C@H](CN(CC2CCCCC2)[C@@H]4c2ccccc2)C3c2ccc(Cl)nc2)c1 (stereo partly specified)	i
CCCCNC(=O)CSc1nc2ccccc2c(=O)n1CCNC(C)=O	i
CCN(CC)CCn1c(NC(=O)c2ccc(Cl)cc2)nc2ccccc21	i
COC(=O)c1ccc(C23CC2(C(NP(=O)(c2ccccc2)c2ccccc2)c2ccccc2)C3)cc1 (stereo unspecified)	i
Cc1cc2ncn(S(=O)(=O)N(C)C)c2cc1C	i
O=C(CCCCCn1c(=S)[nH]c2ccccc2c1=O)N1CCOCC1	i
O=C(CSCc1ccccc1)N1CCc2ccccc21	i
O=C1C(Cl)=C(NCC2CCCO2)C(=O)N1c1cccc(Cl)c1Cl (stereo unspecified)	i
Cc1oc2cc(O)ccc2c(=O)c1Oc1ccc2ccccc2c1	i
CCC1CCCCN1Cc1ccc(OC)c(C)c1C (stereo unspecified)	i
CC(C)=C1C(=O)C(c2ccccc2)=C2CN3C(=O)N(CCc4ccccc4)C(=O)[C@]3(C)[C@H]21	i
COC(=O)[C@@]1(Cc2ccc(OC)cc2)[C@H]2c3cc(C(=O)N(C)C)n(Cc4ccc(OC(F)(F)F)cc4)c3C[C@H]2CN1C(=O)c1ccccc1	i
COc1ccccc1C(=O)Nc1cc2ccccc2oc1=O	i
COC(=O)C1=C(COc2ccccc2)NC(=O)NC1c1ccc(Cl)cc1 (stereo unspecified)	i
CCCN(CCC)C(=O)Cn1c(=O)n(CCC(=O)NCCc2ccccc2)c(=O)c2ccccc21	i
Cc1ccc(Cn2c(SCC(=O)NCC3CCCO3)nc3c(sc4ccccc43)c2=O)cc1 (stereo unspecified)	i
CC1(C)CC(=O)C2=C(C1)OC1=C(C(=O)CC(C)(C)C1)C2c1ccccc1	i
COC(=O)c1cccc(C(=O)Nc2ccc(F)cc2)n1	i
SMILES	MT1-MMP reporter
Cc1c(CN(C)C(=O)c2sc3cc(Cl)ccc3c2Cl)cnn1C	i
Cc1sc2ncn(CC(=O)NCCc3ccccc3)c(=O)c2c1C	i
CCCC[C@@H]1C[C@H]1C(NS(=O)(=O)c1cccc2cccnc12)c1ccc(-c2ccccc2)cc1 (stereo partly specified)	i
Cc1cccc(N2CCN(C(=O)Cc3cn(C)c4ccccc34)CC2)c1C	i
CS(=O)(=O)N(CC(=O)N1CCCC1)c1cc(Cl)c(Cl)cc1Cl	i
FC(F)(F)c1cc(-c2ccccc2)nc(NC2CCCC2)n1	i
COc1ccccc1N1CCN(C2CCN(S(=O)(=O)c3ccc4ccccc4c3)CC2)CC1	i
CCC(C(=O)Nc1cc(C)on1)c1ccccc1 (stereo unspecified)	i
CC1(C)C(=O)OC(c2ccco2)C(C)(C)C1=O (stereo unspecified)	i
CS(=O)(=O)N(Cc1ccc(C(=O)NCCSCc2ccco2)cc1)c1ccccc1	i
Cc1ccc(NC(=O)CCn2cccc2)cc1C	i
COC(=O)[C@@]1(Cc2ccccc2)[C@H]2c3cc(C(=O)N4CCCC4)n(Cc4c(CO)[nH]cc(C)c4=O)c3C[C@H]2CN1C(=O)c1ccccc1	i
CCC1=C(OC(=O)c2ccccc2)C(C)(C)C(c2ccccc2)OC1=O (stereo unspecified)	i
Cc1cccc(OCCn2c(-c3ccco3)nc3ccccc32)c1	i
COc1ccc(C)cc1NC(=O)CCCN1C(=O)CCC1=O	i
O=C(Nc1cccn2ncnc12)C(Cl)Cl	i
COc1ccc(CN2CCCCC2C)cc1OC (stereo unspecified)	i
COc1ccc(Cl)cc1NC(=S)NCc1ccco1	i
CC1CCCN(C(=O)c2ccc3c(=O)n(Cc4ccc5c(c4)OCO5)c(=S)[nH]c3c2)C1 (stereo unspecified)	i
CN(C)C(=O)[C@H]1C[C@@H]1[C@H](NC(=O)CNC(=O)[C@@H]1CCCN1C(=O)[C@H]1C[C@@H]1[C@H](NC(=O)OCc1ccccc1)c1ccccc1)c1ccccc1	i
CC1=C(C(=O)OCc2ccccc2)C(c2ccc([N+](=O)[O-])cc2)NC(=O)N1CCCC(=O)O (stereo unspecified)	i
CCc1ccc(NC(=O)N(CCN2CCOCC2)Cc2ccc3c(c2)CCCN3CC)cc1	i
CCC1=C2CC[C@H]3C(=O)N(c4ccccc4)C(=O)[C@H]3[C@H]2[C@@]2(Cc3ccccc3)C(=O)N(CC(=O)OC)C(=O)N2C1=O	i
CCOC(=O)N1CCN(C(=O)C2CCN(S(=O)(=O)c3ccc(C)cc3)CC2)CC1	i
COC(=O)c1noc(-c2ccc(C)cc2)n1	i
SMILES	MT1-MMP reporter
CCOC(=O)C1=C(C)N(CCCC(=O)O)C(=O)NC1c1ccc(OC)cc1 (stereo unspecified)	i
O=C(Cc1ccc(Br)cc1)N1CCN(c2ccc(F)cc2)CC1	i
CC1(C)Cc2c(cnn2-c2ccccc2)C(=O)/C1=N\NC(=O)c1ccccc1N	i
CS(=O)(=O)N1CCN(C(=O)c2ccc(Br)s2)CC1	i
C[C@@H](C(=O)Nc1ccc2ccccc2c1)[C@@H]1C[C@@]1(C)[C@@H](NC(=O)c1cnccn1)c1ccccc1	i
COc1ccccc1N1CCN(/N=C/C=C\c2ccco2)CC1	i
Cc1nc2c(C(=O)N3CCOCC3)cnn2c(C)c1Cc1cccc(Cl)c1	i
O=C(c1cnccn1)N(Cc1ccco1)C1(C(=O)NC2CCCC2)CCCCC1	i
c1ccc(Nc2nc(N3CCCC3)nc(N3CCCC3)n2)cc1	i
CC1(C(=O)NCC2CC2)C=CC2(CCCCC2)N1C(=O)c1ccccc1 (stereo unspecified)	i
O=C(O)c1cc(C(F)(F)F)nc2ccccc12	i
